Vif A3G: HIV-1 Vif–A3G interaction blockers – biochemical, TR-FRET, GST-Vif 1-94, biotin-A3G peptide, dose response retest, primary screen (AID 1117319); TR-FRET GST-Vif / biotin-A3G peptide binding; higher % means a stronger effect; test concentration not given here; strong numbers were not always called active; inhibition, %, or IC50 in µM where a hit was titrated; 260,000 compounds, 0.57% hits;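 active = above the screen mean plus three standard deviations and confirmed in dose response; inconclusive = results disagree or hit not tested in dose response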;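 also: Vif residues 1-94 fused to GST binding biotinylated APOBEC3G peptide 110-148; 0% = full assay without inhibitor and 100% = GST in place of GST-Vif; retest series ran down from 100 µM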
ALR inh: blocks human ALR sulfhydryl oxidase activity; P55789; AID 485317; purified ALR, DTT oxidation, H2O2 HRP-luminol luminescence; 290,000 compounds, 3.8% hits; inhibition, % (concentration not given with the values);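 active = mean and each replicate at 75% or more; inconclusive = only one of the two met; inactive = neither met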;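 also: stock transfer was 7.5 nL into about 7.5 µL; 0% = neutral wells and 100% = wells with inactivated enzyme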
Target sequence (P55789 whole entry, looked up): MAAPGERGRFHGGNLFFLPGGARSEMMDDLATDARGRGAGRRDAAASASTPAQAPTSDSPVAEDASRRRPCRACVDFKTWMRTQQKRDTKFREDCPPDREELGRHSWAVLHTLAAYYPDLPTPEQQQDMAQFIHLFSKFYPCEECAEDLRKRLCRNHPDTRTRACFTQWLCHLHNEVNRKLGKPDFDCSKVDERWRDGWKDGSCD
RanGTP-Imp inh: inhibitors of RanGTP-importin-beta interaction, primary screen, biochemical, FRET, CFP-Ran, YFP-importin-beta, homogeneous. cell-free CFP-Ran/YFP-importin-beta FRET ratio. inhibition, % (no concentration beside the values). 300,000 compounds, 1.1% hits. AID 2216;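 active = most replicates above 15%; inconclusive = exactly half above 15%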;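 also: 0% = DMSO wells and 100% = Ran loaded with GDP instead of GTP; wells of about 40 µL received 100 nL stock; the first replicate is given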
Calb FLC: affects C. albicans growth with fluconazole; C. albicans CaCi-2 (fluconazole-resistant clinical isolate) + fluconazole, Alamar Blue growth, 48 h; growth inhibition, % (no concentration beside the values); 300,000 compounds, 0.57% hits; AID 1979;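 active = most replicates above 75%; inconclusive = exactly half above 75%; inactive = most below 75%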;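 also: all wells also contain fluconazole at 8 µg/ml as a sub-toxic cotreatment; 0% = median of DMSO wells and 100% = median of geldanamycin control wells; wells of about 8 µL received 7.5 nL stock; the first replicate is given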
HNF4A DNA FP: change in binding of human HNF4 alpha to DNA. P41235. HNF4a-FITC DNA binding, fluorescence polarization, 1 h. activity change, % at 10 µM. 360,000 compounds, 0.3% hits. AID 1224865; in the data active = activity change above about 30%, passing the limit was not always enough;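 also: controls were the assay level and a saturating level of protein; the project sought stronger binding though the title names inhibitors; some compounds called inactive have numbers as strong as hits; positive values seem to mean higher polarization but the record does not say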
Target sequence (P41235 whole entry, looked up): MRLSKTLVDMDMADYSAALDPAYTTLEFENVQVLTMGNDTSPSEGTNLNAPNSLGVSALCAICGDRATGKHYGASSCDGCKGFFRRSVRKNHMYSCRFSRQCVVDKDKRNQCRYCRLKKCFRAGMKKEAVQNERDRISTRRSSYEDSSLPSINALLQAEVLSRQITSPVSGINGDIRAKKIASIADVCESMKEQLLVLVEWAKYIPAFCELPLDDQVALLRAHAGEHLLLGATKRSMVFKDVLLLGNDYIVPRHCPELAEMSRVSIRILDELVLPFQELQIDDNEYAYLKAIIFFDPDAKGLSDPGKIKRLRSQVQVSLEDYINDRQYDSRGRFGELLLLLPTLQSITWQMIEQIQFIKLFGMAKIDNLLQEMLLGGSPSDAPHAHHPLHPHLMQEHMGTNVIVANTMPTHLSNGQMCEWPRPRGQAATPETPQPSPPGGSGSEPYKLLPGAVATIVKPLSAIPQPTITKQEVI
LANA-H2B inh: blocks KSHV LANA binding to histone H2A/H2B | cell-free LANA-H2A/H2B peptide, fluorescence polarization | inhibition, % (concentration not given with the values) | 320,000 compounds, 0.6% hits; in the data active = inhibition mostly above about 10%, no sharp cut-off; inactive = mostly below about 6.7%;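 also: stock transfer was 7.5 nL into about 10 µL; 0% = median of vehicle wells and 100% = median of positive control wells; one replicate is shown; the record names a cut of 25% in any replicate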
Beta2AR agonist: human beta-2 adrenergic receptor agonism by FAP | Am2.2-beta2AR cells, FAP receptor internalization, flow cytometry; reference of the scale not given here | P07550 | response, % (test concentration not listed) | 340,000 compounds, 0.43% hits;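 active = response above a set limit, near 3 SD of response in nonfluorescent compounds, cut at about 42% in these data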;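 also: stock transfer was 100 nL into about 11 µL; a reference agonist was the positive control; negative values mostly stem from fluorescent compounds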
Starred values were filed as active, the others as inactive; ? = inconclusive; · = no result given.

compound	Vif A3G	ALR inh	RanGTP-Imp inh	Calb FLC	HNF4A DNA FP	LANA-H2B inh	Beta2AR agonist
COc1ccc(S(=O)(=O)N2CCN(c3ccc(F)cc3)CC2)cc1OC	·	-3	0.4	2	-1.8	0.0	1
N=c1n(CCN2CCOCC2)c2ccccc2n1CC(O)COc1ccccc1 (configuration not stated)	1%	1	-3.9	-1	-0.8	2.0	3
CCOc1ccccc1N(CC(=O)Nc1cc(OC)ccc1OC)S(C)(=O)=O	3%	-15	1.4	21	-0.1	5.1	2
CC(=O)c1ccc(N2CCN(C(=O)C3CCCN(S(=O)(=O)c4c(C)[nH]c(=O)[nH]c4=O)C3)CC2)cc1 (configuration not stated)	6%	-4	?	19	-1.0	-3.1	-7
O=C(Nc1ccccc1)N1CCN(S(=O)(=O)c2ccccc2)CC1	·	-7	-0.3	0	0.1	-3.1	-4
CCOC(=O)C1=CN(Cc2ccco2)S(=O)(=O)NC1c1cccc(OC)c1 (configuration not stated)	0%	·	·	·	3.0	·	8
Cc1ccc(C(=O)OCc2nnc(-c3ccc(Br)cc3)o2)cc1	-2%	-3	-2.5	-5	1.2	-4.9	-18
Cc1ccc(NC(=O)CCn2cnc3cc(C)c(C)cc32)cc1	4%	·	0.3	28	1.4	-4.2	-6
COc1ccc([N+](=O)[O-])cc1NC(=O)c1cn(-c2ccc(Cl)cc2)c(=O)c2ccccc12	17%	-4	-1.6	-5	4.8	-0.4	7
COc1cc(NS(=O)(=O)c2ccc(NC(=O)/C=C/c3ccc([N+](=O)[O-])cc3)cc2)ncn1	8%	-5	-1.0	19	2.2	13	3
Cc1cccc(N(C)S(=O)(=O)c2cccc3nsnc23)c1	-2%	-4	-4.6	-7	1.3	-5.8	-2
COc1ccc(-c2c(C)cc3oc(=O)cc(-c4ccccc4)c3c2C)cc1C=O	-1%	·	·	·	2.4	·	-1
c1ccc2ncc(-n3cnnn3)cc2c1	-7%	-13	1.1	-24	0.4	-1.8	1
CCCc1ccc(OCC(=O)NNC(=O)c2cccnc2)cc1	0%	1	?	-12	4.0	-2.9	19
COc1ccc(S(=O)(=O)N2CCCCC2)cc1NC(=O)c1ccc([N+](=O)[O-])o1	-2%	·	3.6	-11	-1.4	0.4	10
C=CCn1c(SCC(=O)NCCOC)nc2scc(-c3ccco3)c2c1=O	28%	8	-0.2	3	-5.5	0.6	-9
COCCOC(=O)C(C#N)c1nc2ccccc2nc1N1CCN(Cc2ccccc2)CC1 (configuration not stated)	-1%	-8	5.5	5	4.9	-0.7	-22
CC1CCN(CCCNC(=O)c2ccc3c(=O)n(Cc4ccc(Cl)cc4)c(=S)[nH]c3c2)CC1	1%	6	7.7	20	1.2	3.6	4
CCOc1ccc(C(C)C)cc1S(=O)(=O)n1nc(C)cc1C	5%	-6	-2.5	26	2.8	-2.0	-3
Nn1c(SCC(=O)Nc2ccccc2F)nnc1-c1cccnc1	-3%	-13	-4.8	12	1.0	9.0	-20

Filtered by structure: the entries above containing an aryl thioether with sulfur outside any ring (two)
compound	Vif A3G	ALR inh	RanGTP-Imp inh	Calb FLC	HNF4A DNA FP	LANA-H2B inh	Beta2AR agonist
C=CCn1c(SCC(=O)NCCOC)nc2scc(-c3ccco3)c2c1=O	28%	8	-0.2	3	-5.5	0.6	-9
Nn1c(SCC(=O)Nc2ccccc2F)nnc1-c1cccnc1	-3%	-13	-4.8	12	1.0	9.0	-20

Arranged by value in Vif A3G (highest first): four from the list above.
| SMILES | Vif A3G | ALR inh | RanGTP-Imp inh | HNF4A DNA FP | LANA-H2B inh | Beta2AR agonist |
| --- | --- | --- | --- | --- | --- | --- |
| CCOc1ccccc1N(CC(=O)Nc1cc(OC)ccc1OC)S(C)(=O)=O | 3% | -15 | 1.4 | -0.1 | 5.1 | 2 |
| N=c1n(CCN2CCOCC2)c2ccccc2n1CC(O)COc1ccccc1 (configuration not stated) | 1% | 1 | -3.9 | -0.8 | 2.0 | 3 |
| CCOC(=O)C1=CN(Cc2ccco2)S(=O)(=O)NC1c1cccc(OC)c1 (configuration not stated) | 0% | · | · | 3.0 | · | 8 |
| COc1ccc(S(=O)(=O)N2CCCCC2)cc1NC(=O)c1ccc([N+](=O)[O-])o1 | -2% | · | 3.6 | -1.4 | 0.4 | 10 |

(cont.)
SMILES | Vif A3G | ALR inh | RanGTP-Imp inh | Calb FLC | HNF4A DNA FP | LANA-H2B inh | Beta2AR agonist
Clc1cnc(N/N=C/c2ccco2)c(Cl)c1 | · | 39 | 0.6 | 0 | -0.5 | 2.5 | -8
O=c1cc(O)c2sc(Nc3ccc(F)cc3)nc2[nH]1 | ? | 57 | 4.3 | -26 | 5.0 | -2.2 | -4
CCCn1c(N)c(N(CCOC)C(=O)c2ccc(-c3ccccc3)cc2)c(=O)[nH]c1=O | 3% | 0 | · | · | -1.4 | -1.2 | -3
CN1CCN(C2=Cc3ccccc3Sc3cc(F)c(F)cc32)CC1 | 4% | 40 | 3.0 | -3 | 1.6 | -4.4 | 6
COCCNC(=O)NC(=O)COC(=O)C12CC3CC(CC(NC(C)=O)(C3)C1)C2 | 7% | · | 1.6 | -4 | -1.4 | 1.2 | 2
CC(C)c1nc(NCc2ccccc2)c(C#N)c2c1CCCC2 | -1% | -3 | 4.0 | -1 | -2.8 | -2.4 | -1
C=CCn1c(CCn2c3ccccc3c3ccccc32)n[nH]c1=S | -19% | 41 | -1.5 | -2 | -5.7 | 3.3 | 1
C[N+]1(CN2C(=O)C3C4C=CC(C4)C3C2=O)CCCCC1 (configuration not stated) | 3% | 2 | -1.1 | 16 | -1.4 | 0.7 | -1
O=C(CN1C(=O)C2C3C=CC(C3)C2C1=O)NCCN1CCCc2ccccc21 (configuration not stated) | 6% | -33 | ? | 2 | -4.0 | -0.9 | -6
CCOCCCNC(=O)C(NC(=O)Cc1cccs1)c1ccc(Cl)cc1 (configuration not stated) | -5% | · | -1.7 | -2 | 5.2 | 3.7 | -11
Cc1nnc(SCc2ccc(CSc3nnc(C)c(=O)[nH]3)cc2)[nH]c1=O | -4% | -7 | 3.7 | -11 | -2.3 | 0.1 | -2
CC1COc2ccccc2N1S(=O)(=O)c1ccc(Cl)cc1 (configuration not stated) | 16% | -5 | 1.5 | -4 | 1.6 | -0.9 | 3
